UUG fidelity – modulators of start codon recognition fidelity in yeast; S. cerevisiae UUG-firefly luciferase reporter, luminescence/redox ratio; actives 0.13% (n = 350,000); activity score, % at 18.7 µM;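 active = replicate mean at a twofold rise or more, about +100% in these data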;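 note: firefly luciferase made from a UUG start codon reports start codon fidelity; reporter light over untreated wells divided by growth signal over untreated wells; some hits fall short of that in this replicate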
eIF4H inh – inhibitors of RNA binding by human eIF4H. actives 0.94% (n = 290,000). AID 2012. eIF4H fluorescence polarization binding assay. inhibition, % at 35 µM;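 active = 50% or more with normal probe brightness, or confirmed in later tests; about a fifth of its hits are not listed in these tables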;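 note: calls also rest on retests at 20 µM and on dose response follow-up; 0% = protein and probe with vehicle and 100% = probe without protein; strong numbers were not always called active; many hits fall short of the cut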
MT1-MMP act inh – inhibitors of human MT1-MMP activation | P50281 | HT1080 RFP-PRO-GFP cells, GFP/RFP ratio fluorescence, overnight; percent of plate control window, DMSO zero | GFP/RFP ratio change, % at 20 µM | actives 0.061% (n = 360,000) | AID 651647;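 active = GFP/RFP ratio change of at least 30% with cell ATP level not reduced by more than half and red fluorescence within 50% of control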; note: strong numbers were not always called active
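Read-out: GFP/RFP fluorescence ratio; Test system: RFP-PRO-GFP reporter HT1080 cells; Compound dosing: single-point 20 µM compound, 1% DMSO; Times: overnight compound exposure at 37 °C.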
CSC inhib – cancer stem cell inhibition | cancer stem cell-like cells viability, luminescence | inhibition, % at 7.5 µM | actives 1.1% (n = 300,000) | AID 2717;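 active = mean at 75% or more and at least half the replicates too; tested in HMLE shEcad cells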;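 note: 0% = median of negative and 100% = median of positive control wells; the first replicate is given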
Rce1 inh – yeast Ras-converting enzyme inhibition; Q03530; yeast membranes, quenched prenylated peptide cleavage fluorescence; actives 0.27% (n = 290,000); calls only; AID 2563;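 active = fall in fluorescence gain of 50% or more versus controls, with final raw signal at or below 3038400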;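 note: plate controls were neutral control wells for no effect and wells lacking membranes for full effect; tested at 10 µM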
Target sequence (Q03530 whole entry, looked up): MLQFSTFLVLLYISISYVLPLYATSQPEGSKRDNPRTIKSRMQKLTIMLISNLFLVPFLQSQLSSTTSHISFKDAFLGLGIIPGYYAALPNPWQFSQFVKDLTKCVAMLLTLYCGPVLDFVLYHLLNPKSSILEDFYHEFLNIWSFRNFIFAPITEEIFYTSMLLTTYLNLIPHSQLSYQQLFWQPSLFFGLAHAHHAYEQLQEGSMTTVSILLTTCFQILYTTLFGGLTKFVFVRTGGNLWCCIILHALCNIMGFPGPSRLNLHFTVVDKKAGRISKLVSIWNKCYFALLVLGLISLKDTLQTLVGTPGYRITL
PABP polyA inh – PABP-poly(A) binding inhibition; P11940; actives 1% (n = 290,000); PABP-poly(A) RNA binding, fluorescence polarization; inhibition, % at 35 µM;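 active = 50% or more with normal probe brightness, or confirmed in later tests; about a fifth of its hits are not listed in these tables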;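 note: calls also rest on retests at 20 µM and on dose response follow-up; controls were probe without protein and protein plus probe with vehicle; some compounds called inactive have numbers as strong as hits; many hits fall short of the cut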
Target sequence (P11940 whole entry, looked up): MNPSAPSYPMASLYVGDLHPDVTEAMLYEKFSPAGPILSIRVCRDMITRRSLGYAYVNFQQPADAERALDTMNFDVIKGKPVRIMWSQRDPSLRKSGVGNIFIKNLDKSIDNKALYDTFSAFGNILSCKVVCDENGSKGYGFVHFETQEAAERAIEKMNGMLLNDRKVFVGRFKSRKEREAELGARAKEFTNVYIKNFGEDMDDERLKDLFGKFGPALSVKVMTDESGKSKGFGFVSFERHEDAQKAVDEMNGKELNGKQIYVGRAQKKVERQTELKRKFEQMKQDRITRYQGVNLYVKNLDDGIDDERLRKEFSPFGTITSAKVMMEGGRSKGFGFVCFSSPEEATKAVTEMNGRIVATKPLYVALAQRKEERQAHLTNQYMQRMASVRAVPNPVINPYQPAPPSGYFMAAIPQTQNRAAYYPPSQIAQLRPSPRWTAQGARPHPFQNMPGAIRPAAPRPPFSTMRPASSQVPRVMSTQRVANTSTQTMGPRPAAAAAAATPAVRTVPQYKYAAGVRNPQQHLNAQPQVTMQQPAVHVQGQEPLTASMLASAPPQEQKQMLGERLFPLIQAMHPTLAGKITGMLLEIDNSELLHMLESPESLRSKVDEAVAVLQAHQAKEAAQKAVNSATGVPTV
HIV Env fusion – blocks HIV Env-driven cell-cell fusion; actives 1.1% (n = 360,000); inhibition, % at 12.3 µM; HeLa-JRFL Env/CEM21 cell fusion, luciferase;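 active = mean replicate inhibition score of at least 50 and every replicate individually at or above 50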;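 note: 0% = plate neutral controls and 100% = maraviroc near 300 nM; one replicate is shown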
eIF4H inh retest – further read-out of eIF4H inh, marked with its call; inhibition, %; compound at 20 µM; confirmation average;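 mean of two retest wells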
PABP polyA inh retest – second read-out of PABP polyA inh, no call of its own (marks repeat the call); inhibition, %; compound at 20 µM; confirmation repeats;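 mean of two retest wells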
MT1-MMP act inh RFP – second read-out of MT1-MMP act inh, no call of its own (marks repeat the call); RFP signal change, %; measured here: RFP expression control read;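 0 = vehicle wells; hits needed this value within 50% of zero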
The depositor's hits bear a star; i = inactive; . = not tested or not shown; + = active, no number; & = joins results of further samples.

The first 13 compounds as a preview:
SMILES | UUG fidelity | eIF4H inh | MT1-MMP act inh | MT1-MMP act inh RFP | CSC inhib | Rce1 inh | PABP polyA inh | HIV Env fusion | others
COc1ccc(C(=O)Nc2nnc(SCC(=O)Nc3ccc(NC(C)=O)cc3)s2)c(OC)c1 | -9 | -5 | -2 | -1 | 20 | i | 3 | -93
CC(CC(=O)Nc1ccc(F)c([N+](=O)[O-])c1)c1ccccc1 (stereo unspecified) | . | 2 | 1 | -2 | -21 | i | -4 | 7
O=S(=O)(Cc1ccc(Cl)cc1)N1CCN(c2ncccn2)CC1 | -13 | -6 | 1 | -4 | -5 | i | -1 | 3
O=C(O)c1ccc(N/N=C/c2ccc(-c3ccccc3Cl)o2)cc1 | -29 | 10 | -1 | -3 | 33 | + | 13 | -154
Cc1cc(NC(=O)CCCC(=O)Nc2ccc(F)cc2)no1 | -32 | -1 | 0 | -2 | 18 | i | 13 | .
O=C(CCC1CCCN(C(=O)C2=CCCCC2)C1)N1CCN(c2ccccn2)CC1 (stereo unspecified) | . | -7 | 5 | -1 | -19 | . | -4 | 0
CCCN(CCC)S(=O)(=O)c1cccc(C(=O)N=c2sccn2C)c1 | -19 | -9 | 5 | -6 | 8 | i | 3 | 11
COC(=O)c1c(NC(=O)c2ccco2)sc(C(=O)Nc2ccc(F)cc2)c1C | . | -3 | 4 | 3 | -4 | i | -4 | .
Cc1ccc(C)c(N2CCN(S(=O)(=O)c3c(C)[nH]c(C)c3C(=O)N3CCCC3)CC2)c1 | -6 | 8 | -1 | 2 | -28 | i | 4 | 0
COCCn1nnnc1C(c1ccc(OC)c(OC)c1)N1CCN(C(=O)c2ccco2)CC1 (stereo unspecified) | . | -16 | -2 | 0 | 8 | i | 3 | 6
CCCc1nc2sc3c(=O)n(N)cnc3c2c2c1COC(C)(C)C2 | . | 3 | . | . | 33 | i | -9 | .
O=C(COc1ccc(C(=S)N2CCOCC2)cc1)Nc1ccccc1C(F)(F)F | . | 2 | 0 | -1 | -14 | i | -4 | -9
O=C1NC(c2ccccn2)Nc2sc3c(c21)CCC3 (stereo unspecified) | . | 86 | 5 | 3 | 26 | i | 57 | . | eIF4H inh retest=35;PABP polyA inh retest=50

This part in full, repeating the preview:
SMILES | UUG fidelity | eIF4H inh | MT1-MMP act inh | MT1-MMP act inh RFP | CSC inhib | Rce1 inh | PABP polyA inh | HIV Env fusion | others
COc1ccc(C(=O)Nc2nnc(SCC(=O)Nc3ccc(NC(C)=O)cc3)s2)c(OC)c1 | -9 | -5 | -2 | -1 | 20 | i | 3 | -93
CC(CC(=O)Nc1ccc(F)c([N+](=O)[O-])c1)c1ccccc1 (stereo unspecified) | . | 2 | 1 | -2 | -21 | i | -4 | 7
O=S(=O)(Cc1ccc(Cl)cc1)N1CCN(c2ncccn2)CC1 | -13 | -6 | 1 | -4 | -5 | i | -1 | 3
O=C(O)c1ccc(N/N=C/c2ccc(-c3ccccc3Cl)o2)cc1 | -29 | 10 | -1 | -3 | 33 | + | 13 | -154
Cc1cc(NC(=O)CCCC(=O)Nc2ccc(F)cc2)no1 | -32 | -1 | 0 | -2 | 18 | i | 13 | .
O=C(CCC1CCCN(C(=O)C2=CCCCC2)C1)N1CCN(c2ccccn2)CC1 (stereo unspecified) | . | -7 | 5 | -1 | -19 | . | -4 | 0
CCCN(CCC)S(=O)(=O)c1cccc(C(=O)N=c2sccn2C)c1 | -19 | -9 | 5 | -6 | 8 | i | 3 | 11
COC(=O)c1c(NC(=O)c2ccco2)sc(C(=O)Nc2ccc(F)cc2)c1C | . | -3 | 4 | 3 | -4 | i | -4 | .
Cc1ccc(C)c(N2CCN(S(=O)(=O)c3c(C)[nH]c(C)c3C(=O)N3CCCC3)CC2)c1 | -6 | 8 | -1 | 2 | -28 | i | 4 | 0
COCCn1nnnc1C(c1ccc(OC)c(OC)c1)N1CCN(C(=O)c2ccco2)CC1 (stereo unspecified) | . | -16 | -2 | 0 | 8 | i | 3 | 6
CCCc1nc2sc3c(=O)n(N)cnc3c2c2c1COC(C)(C)C2 | . | 3 | . | . | 33 | i | -9 | .
O=C(COc1ccc(C(=S)N2CCOCC2)cc1)Nc1ccccc1C(F)(F)F | . | 2 | 0 | -1 | -14 | i | -4 | -9
O=C1NC(c2ccccn2)Nc2sc3c(c21)CCC3 (stereo unspecified) | . | 86 | 5 | 3 | 26 | i | 57 | . | eIF4H inh retest=35;PABP polyA inh retest=50
COc1ccc(CNC(=O)CCNC(=O)c2ccco2)cc1OC | -21 | . | 1 | 1 | . | . | . | -10
COCCCNC(=O)c1ccc([N+](=O)[O-])cc1 | -12 | 4 | 3 | 7 | -1 | i | -5 | -15
CC(=O)NCCNC(=O)C1(C)Cc2c(-c3cccc(C(F)(F)F)c3)ccnc2O1 (stereo unspecified) | -5 | . | -2 | 2 | . | . | . | -2
CCc1nnc(NC(=O)c2cccc(NC(=O)C(C)C)c2)s1 | -14 | -4 | 0 | 0 | 1 | i | 0 | -43
O=C(Cn1nc(-c2cccc([N+](=O)[O-])c2)c2ccccc2c1=O)NCC1CCCO1 (stereo unspecified) | . | 1 | 1 | 3 | 12 | i | 3 | 8
Cn1cc(CNC(=O)c2ccc(OC3CCN(Cc4ccccn4)CC3)cc2)cn1 | -23 | -11 | 5 | 2 | . | i | 10 | 1
CCOc1ccccc1CNS(=O)(=O)c1ccc2c(c1)oc(=O)n2C | 3 | -1 | 0 | -1 | -23 | i | 2 | 23
O=C(CSc1nnc2ccc(-c3ccc(F)cc3)nn12)N1CCCC1 | . | 2 | -2 | -2 | -6 | i | 11 | 15
CS(=O)(=O)c1ccc(Cl)c(NC(=O)CCNC(=O)c2ccco2)c1 | 1 | -7 | -2 | 1 | 6 | i | -7 | -13
CS(=O)(=O)N1CCC(C(=O)Nc2ccc(Cl)c(Cl)c2)CC1 | . | 2 | 5 | 0 | 7 | i | 2 | 1
Nn1c(SCC(=O)N2CCOCC2)nnc1-c1ccco1 | . | 2 | 1 | 7 | -12 | i | 2 | .
Cc1cc(=O)n2c3c(cccc13)CCC2 | -12 | -6 | -3 | 1 | -18 | i | -2 | .
Next structures:
SMILES | UUG fidelity | eIF4H inh | MT1-MMP act inh | MT1-MMP act inh RFP | CSC inhib | Rce1 inh | PABP polyA inh | HIV Env fusion | others
CCCC(=O)Nc1ccc(-c2nc3cc(C)c(C)cc3o2)c(O)c1 | -6 | -1 | 3 | 3 | 4 | i | -22 | .
Cc1ccc(NC(=O)COC(=O)C2CSC3(C)CCC(=O)N23)cc1S(=O)(=O)N1CCOCC1 (stereo unspecified) | . | 12 | 0 | -1 | . | i | 0 | -8
O=C(NCc1ccccc1)c1cc(C2COCCN2C(=O)C/C=C/c2ccccc2)on1 (stereo unspecified) | 13 | . | -2 | 1 | . | . | . | -35
CCC(=O)N(C)C[C@H]1Oc2cc(-c3ccccc3F)ccc2S(=O)(=O)N([C@H](C)CO)C[C@H]1C | 10&5&-7 | . | -5 | -1 | . | . | . | 19
Cc1ccc(NC(=O)CSc2nnc(-c3ccncc3)o2)cc1C | . | -2 | 1 | -1 | -10 | i | 6 | 13
CCN(CC(=O)Nc1ccc(NC(C)=O)cc1)C(=O)CCN1C(=O)c2cccc([N+](=O)[O-])c2C1=O | -15 | 3 | -1 | 1 | -2 | i | 42 | .
Cc1noc(C)c1-c1nc(CSc2ccccc2)no1 | . | 1 | -3 | -2 | -14 | i | 3 | -20
COC(=O)c1cc(-c2ccccc2)n(CC(=O)O)c1C | -15 | -6 | 5 | 4 | -15 | . | -5 | .
Cc1ccc(S(=O)(=O)N(C)c2ccc(OCC(=O)Nc3ccc(S(C)(=O)=O)cc3)cc2)cc1 | -10 | . | -1 | 0 | . | . | . | -52
CCN1C(c2ccccc2)C(C)C(=O)C(C)C1c1ccccc1 (stereo unspecified) | -29 | -3 | 2 | 7 | -3 | i | -3 | .
CC(C)N(CC#CCC1(O)c2ccccc2-c2ccccc21)CCO | 56 | 17 | -4 | 1 | -6 | i | -1 | .
COC(=O)c1ccc2c(=O)[nH]c(CN3c4ccccc4CC3C)nc2c1 (stereo unspecified) | -4 | -1 | -2 | -3 | -16 | i | 18 | -91
O=C(NC(=S)Nc1cccnc1Cl)c1ccco1 | . | -10 | 3 | 2 | 10 | i | 38 | -25
O=C(N/N=C/c1cccnc1)c1ccc(NC(=O)c2ccccc2Cl)cc1 | -7 | -4 | 4 | 3 | 4 | i | 18 | 8
Cc1cccc(S(=O)(=O)NC(=O)C2(C)CCN2C(=O)Cc2ccc(Cl)cc2Cl)c1 (stereo unspecified) | 6 | . | 0 | 3 | . | . | . | -4
Cc1cc(C)n(-c2ccc(C(=O)OCC(=O)NCc3ccc(Cl)cc3)cc2)n1 | . | -2 | 3 | 7 | 3 | i | -13 | -27
CN1CCN(C(=O)c2cc(=O)c3cc(Cl)cc(Cl)c3o2)CC1 | -17 | 1 | 0 | 2 | 3 | i | -7 | 2
O=C(OCC(=O)N1CCN(C(=O)COC(=O)c2ccncc2)CC1)c1ccncc1 | -4 | -2 | -6 | -4 | -15 | i | 17 | -52
O=S(=O)(c1ccc(NC(=S)NCc2ccc(F)cc2)cc1)N1CCOCC1 | -28 | -15 | 3 | -4 | -8 | i | 2 | -7
Cc1csc(SCC(=O)NCc2cccs2)n1 | . | -4 | 4 | 1 | -14 | i | -6 | .
CC(O)(CS(=O)(=O)Cc1ccccc1)c1ccc(Cl)cc1 (stereo unspecified) | -12 | -5 | -9 | -3 | -6 | i | 2 | 20
COC(=O)C1CN(C(=O)C(C)Oc2cc(C)ccc2C(C)C)c2ccccc2O1 (stereo unspecified) | -17 | -3 | -5 | -3 | -10 | i | -6 | 11
Cc1cc(C)c2c(n1)sc1c(=O)n(Cc3ccccc3Cl)nnc12 | . | -4 | 8 | 1 | . | i | -6 | .
COc1ccc(-c2ccc(/C=N/NC(=O)c3cccnc3)o2)c([N+](=O)[O-])c1 | -6 | 2 | -10 | -2 | . | i | -10 | .
O=C(C1CCCC1)N1CCN(S(=O)(=O)c2ccc(Cl)cc2)CC1 | -15 | 14 | -4 | -5 | -11 | i | 11 | -2
Next results:
SMILES | UUG fidelity | eIF4H inh | MT1-MMP act inh | MT1-MMP act inh RFP | CSC inhib | Rce1 inh | PABP polyA inh | HIV Env fusion | others
Cc1ccc(NC(=S)NC(=O)c2ccc(-c3ccc(Cl)cc3)o2)c(O)c1 | . | 21 | 12 | 5 | 13 | i | 0 | -29
CC1CCN(c2nc3c(c(=O)n(C)c(=O)n3C)n2CCSc2nc3ccccc3o2)CC1 | . | -4 | . | . | . | i | -6 | .
NC(=O)CN1CCN(C(=O)NC2CCCCC2)CC1 | -10 | -11 | 3 | 2 | -8 | i | -14 | -6
CC1CCN(C(=O)c2[nH]cnc2C(=O)NC2CCN(C(=O)OC(C)(C)C)CC2)CC1 | -2 | . | 0 | 1 | -16 | . | . | 23
COC(=O)CN1C(=O)c2cccc3cccc1c23 | -21 | -1 | -3 | -1 | -2 | i | 9 | -9
Cc1n(CC(O)COCc2ccccc2)c2ccccc2[n+]1C (stereo unspecified) | -10 | -3 | 2 | 4 | -3 | i | 0 | 38
COc1ccc(C(=O)NC(=S)NNC(=O)CNC(=O)C2CCCCC2)cc1 | . | 13 | 3 | 8 | -10 | i | 4 | -15
C[C@@H]1CN([C@H](C)CO)C(=O)c2cc(NS(=O)(=O)c3cn(C)cn3)ccc2O[C@@H]1CN(C)S(C)(=O)=O | -18&-3 | . | 4 | 0 | -2 | . | . | 4
CN(C)c1ccc(NC(=O)COC(=O)c2cc(Cl)ccc2[N+](=O)[O-])cc1 | 17 | 2 | -8 | -10 | 0 | i | -3 | 12
Oc1c(C=NCc2ccc(F)cc2)[nH]c2ccc(Br)c(Cl)c12 | . | 3 | . | . | 0 | i | 7 | 3
